VDR inh = Inhibitors of the vitamin D receptor (VDR): qHTS; Vitamin D3 receptor (Homo sapiens), P11473; VDR-SRC2-3 peptide fluorescence polarization, 2 h; Potency, µM, inactives show max response, negative = inhibition, actives largely listed as inhibitors; 400,000 compounds, 0.93% hits; active = well fitted inhibition curve with a large enough effect; inconclusive = small, poorly fitted or top-dose-only effect, or another doubt; inactive = no such curve, though single readings can be large or run the other way; also: series mostly up to about 120 µM
Target sequence (P11473 whole entry, looked up): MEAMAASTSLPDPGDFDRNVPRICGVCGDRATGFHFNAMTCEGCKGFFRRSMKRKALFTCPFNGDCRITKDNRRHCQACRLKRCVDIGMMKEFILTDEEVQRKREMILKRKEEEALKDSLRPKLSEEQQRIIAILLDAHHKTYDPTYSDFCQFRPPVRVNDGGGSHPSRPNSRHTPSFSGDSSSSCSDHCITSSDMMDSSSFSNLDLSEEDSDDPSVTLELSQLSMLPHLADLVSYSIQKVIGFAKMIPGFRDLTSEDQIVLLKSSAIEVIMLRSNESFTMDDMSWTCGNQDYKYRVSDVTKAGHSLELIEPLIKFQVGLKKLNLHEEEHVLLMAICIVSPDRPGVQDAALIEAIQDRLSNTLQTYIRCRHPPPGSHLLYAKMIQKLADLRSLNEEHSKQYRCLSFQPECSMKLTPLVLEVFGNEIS
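VDR–SRC2-3 interaction, FP format. Cmpds 23 nl via pintool, brief spin, 2 h ambient incubation.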
Active calls of the source: *; u = inconclusive; & = joins results of further samples; [ ] = remark or other dose. % is scaled to controls: 0 for no effect and ±100 for the full control effect; potency is read from the fitted curve at half-maximal effect. Only part of the results is shown. The share of hits here may be higher or lower than overall.

SMILES | VDR inh
CCOc1ccc(NC(=O)C2CCCN(c3nnc(C)c4c(C)n(-c5ccccc5)nc34)C2)cc1 (stereo not drawn) | -2%
CCNc1nc(N)nc(-c2cc(Cl)ccc2O)n1 | -1%
CN1CCCC1=Nc1c2c(nc3ccccc13)N(C)CC2 | 1%
O=C(CCCCCN1C(=O)c2ccccc2C1=O)Nc1cccc(O)c1 | -8%
COc1cc(/C=C/C(=O)c2ccc(Cl)s2)cc(OC)c1O | 56µM*
Cc1cc(OCC(=O)Nc2ccncc2)ccc1[N+](=O)[O-] | -20%
COc1ccc(Br)cc1CNCc1c(C(=O)O)c(C)n(Cc2ccccc2C)c1C | 8%
COc1ccc(-n2nnnc2/C(=C/N(C)C)C(=O)c2ccccc2)cc1 | 8%
CCOC(=O)c1c(C)nc2ccccc2c1-c1ccccc1 | 0%
O=C(/C=C/c1ccco1)NC(=S)Nc1ccc(N2CCOCC2)c(Cl)c1 | -9%
O=C(COC(=O)c1cccc(OC(F)F)c1)Nc1ncccn1 | -16%
COc1ccc(CC(=O)Nc2cc(C)on2)cc1OC | 3%
COc1cccc(NC(=S)NCCC(c2ccccc2)c2ccccc2)c1 | -9%
COC(=O)[C@@H]1[C@@H]2C[C@H]3c4[nH]c5ccccc5c4CCN3C[C@@H]2CC[C@@H]1O | 3%&1%&8%&0%
Cn1c(-c2ccc(F)cc2)cnc1NCc1cc2c(cc1[N+](=O)[O-])OCO2 | -5%
CSc1ccccc1C(=O)Nc1cccc(N(C)S(C)(=O)=O)c1 | 3%
N#C/C(=C(/O)COC(=O)CSc1ccc(Cl)cc1)c1nc2ccccc2[nH]1 | -10%
Cc1ccc(C)c(N2CCN(C(=O)C3CCN(Cc4nc(-c5cccc(Cl)c5)oc4C)CC3)CC2)c1 | -15%
CCCN(CCC)S(=O)(=O)c1cccc(-c2csc(C)n2)c1 | -10%
COCCn1c(CNC(=O)c2ccc(C)cc2)nc2cccnc21 | 9%
CCOC(=O)c1nnn(CC(=O)Nc2cccc(F)c2)c1C(=O)OCC | -5%
CCN1CCN(C(=O)c2ccc(S(=O)(=O)Nc3ccccc3)cc2)CC1 | 0%
O=C(COc1ccc2cc(Br)ccc2c1)N1CCOCC1 | -8%
COc1ccc(NC2CCCN(C(=O)CSc3ccccc3)C2)cc1OC (stereo not drawn) | 9%
Cc1ccc(NC(=O)CN2CCN(C(=O)C3CCCO3)CC2)c(C)c1 (stereo not drawn) | -8%
O=C(COc1ccc(NC(=O)c2ccccc2)cc1)c1ccccc1 | 3%
CCN1CCn2c1nc(N1CCCCC1)nc2=O | 0%
Cc1cc(OCC(=O)OCC(=O)N2CCc3ccccc32)ccc1Cl | -8%
COc1ccc2[nH]c(C(=O)NCc3ccccc3)c(C)c2c1 | -12%
OC1(c2cn(Cc3ccccc3)nn2)CCCCC1 | -1%

In a second layout: 4 of the compounds above
VDR inh | canonical_smiles
0% | CCN1CCn2c1nc(N1CCCCC1)nc2=O
-8% | Cc1cc(OCC(=O)OCC(=O)N2CCc3ccccc32)ccc1Cl
-12% | COc1ccc2[nH]c(C(=O)NCc3ccccc3)c(C)c2c1
-1% | OC1(c2cn(Cc3ccccc3)nn2)CCCCC1

Fetched by compound from the list above:
SMILES | VDR inh
O=C(CCCCCN1C(=O)c2ccccc2C1=O)Nc1cccc(O)c1 | -8%
OC1(c2cn(Cc3ccccc3)nn2)CCCCC1 | -1%
COc1cc(/C=C/C(=O)c2ccc(Cl)s2)cc(OC)c1O | 56µM*

(cont.)
SMILES | VDR inh
CCCCCC(=O)Nc1nc2ccccc2[nH]1 | u
O=C(COc1ccc(Cl)cc1Cl)NCCCCc1ccccc1 | -2%
C=CCNC(=O)c1ccc(-n2cccc2)cc1 | -12%
COC(=O)c1ccc(NS(=O)(=O)c2ccc3[nH]c4c(c3c2)CCCCC4)cc1 | 5%
COCc1cc(C)nc(SCc2ccc(Cl)cc2)c1C#N | 8%
N#CCSc1nc2c(sc(=S)n2Cc2ccco2)c(=O)n1-c1ccc(F)cc1 | 11%
CC1=Nc2cc(C(=O)O)ccc2Sc2c(C)ccc(C)c21 | 4%
CNC(=S)N/N=C/c1c2ccccc2c(Cl)c2ccccc12 | u
O=C(CCSc1ccccc1)Nc1nnc(-c2cccs2)o1 | -7%
O=C1NC(=O)N(Cc2ccccc2)CC1Br (stereo not drawn) | 0%
COc1ccc(C(=O)N2CCC3(CC2)CN(c2ncccn2)C3)cc1 | -1%
COc1ccc(Cl)cc1Nc1ncnc2c1nc1n2CCCC1 | 7%
O=C(c1cc(-c2ccncc2)nc2ccc(Br)cc12)N1CCN(Cc2ccc3c(c2)OCO3)CC1 | -7%
CCOc1ccc(NC(=O)CN(C)C(=O)c2cccnc2Sc2ccc(C)cc2C)cc1OCC | -5%
C/C=C/c1ccc(OCCOc2cc(C=O)ccc2OC)c(OC)c1 | -23%
CC(=O)c1ccc(S(=O)(=O)N2CCN(C(=O)/C=C/c3ccc4ccccc4n3)CC2)cc1 | 2%
Clc1ccc(-c2cc(C3CCNCC3)[nH]n2)cc1 | -4%
COc1ccc(-n2c(SCC(=O)Nc3ccc(C(N)=O)cc3)nc3c([nH]c4ccccc43)c2=O)cc1OC | -3%
COc1ccccc1NC(=O)c1cccc2c(Br)cccc12 | u
Cc1ccc(C)c(N2CCN(S(=O)(=O)c3ccc4c(c3)oc(=O)n4C)CC2)c1 | -13%
COc1ccc(S(=O)(=O)N2CCC(C(N)=O)CC2)cc1 | -11%
O=C(O)/C=C/c1ccc(S(=O)(=O)NCc2ccco2)cc1 | 8%
CCOc1ccc(S(=O)(=O)N(CC(=O)NCCSCc2ccccc2)c2ccccc2)cc1 | 8%
Cc1cccc(C(=O)O/N=C(\N)c2cccc([N+](=O)[O-])c2)c1 | -1%
COC(=O)c1ccccc1NC(=O)CN(c1ccc(OC)cc1)S(C)(=O)=O | -8%
O=C(CCN1CCCCC1)c1ccccc1 | -10%
COc1ccc(S(=O)(=O)NCC(c2ccc(F)cc2)N2CCOCC2)cc1Br (stereo not drawn) | 2%
CCc1nn(C(C)C(=O)NCc2ccc(Cl)cc2)c(=O)c2cc3occc3n12 (stereo not drawn) | 18%
COc1ccc(NC(=O)CSc2nc3ccsc3c(=O)n2CCCCCC(=O)O)cc1 | -2%
CSc1nc2ccc(NC(=O)c3c(-c4ccccc4)noc3C)cc2s1 | 33%[activator]
CCc1cc(C(=O)NNC(=S)NCc2ccccc2)cs1 | -2%
CC(C)CNC(=O)c1cccc(NC(=O)C(C)C)c1 | 7%
Cc1cc(F)ccc1S(=O)(=O)N(CC(=O)N1CCOCC1)CC(=O)N1CCOCC1 | -8%
Cc1ccccc1C1NC(=S)NC2=C1C(=O)CC(C)(C)C2 (stereo not drawn) | -19%
CCOc1ccc(/C=C/c2nc(C#N)c(NCc3ccc(OC)cc3)o2)cc1 | 11%
COc1ccc(OCc2cc(C(=O)NCCN3CCCC(O)C3)no2)c(Cl)c1 (stereo not drawn) | 6%
COc1ccc(S(=O)(=O)Nc2cc(C(=O)NC3CCCCCC3)ccc2N2CCOCC2)cc1 | 15%
COCCNC(=O)c1ccc(S(=O)(=O)c2ccc(Cl)cc2)c(NC(C)=O)c1 | 16%
CN(CC(=O)Nc1ccccc1Cl)C(=O)c1cccc(S(=O)(=O)N2CCN(c3ccccc3)CC2)c1 | -3%
Cc1ccc(NC(=O)C(C)N=C2NS(=O)(=O)c3ccccc32)cc1F (stereo not drawn) | 25%
Cc1nc2nc(SCC(=O)C(C)(C)C)[nH]c2cc1Br | 5%
c1ccc(N2CCN(Cc3nnnn3C3CCCCC3)CC2)cc1 | 14%
CCOC(=O)c1scc(-c2ccc(C)cc2)c1S(=O)(=O)Nc1cc(Cl)ccc1OC | 0%
COc1ccc(C)c2sc(N(Cc3cccnc3)C(=O)C3CCCCC3)nc12 | 14%
COc1ccc(C2c3sc(=O)[nH]c3SCC2C(N)=O)cc1 (stereo not drawn) | -7%
Cc1ccc(S(=O)(=O)NCCNS(=O)(=O)c2ccc(C)cc2)cc1 | 5%
CC(=O)NC(C)c1cc(F)c2cccnc2c1O (stereo not drawn) | -9%
Cc1nnc(SCC(=O)Nc2ccc(Br)cn2)[nH]c1=O | 0%
CCC(C)c1nc2ccsc2c(N2CCOC2=O)c1-c1ccccc1 (stereo not drawn) | -1%
CCN1C(=O)C(CC(=O)Nc2ccc(OC)cc2)N(Cc2ccco2)C1=S (stereo not drawn) | 12%
Clc1cc(CSc2ccccc2)nc(-c2ccccc2)n1 | -17%
CCOc1ccc(OCCC(=O)OCC(=O)N2CCN(S(=O)(=O)c3ccc(C)cc3)CC2)cc1 | 2%
COc1ccc(CNC/C=C/c2ccccc2)cc1 | -9%
CCCOc1ccc(C2C(=O)N(C3CCCCC3)CC(=O)N2CCc2ccccc2)cc1OC (stereo not drawn) | 22%
CCOc1ccc(CCN2C(=O)C3C4CCC(O4)C3C2=O)cc1OCC (stereo not drawn) | -19%
COc1ccc2c(c1OC)C(=O)OC2CC(=O)c1ccc(N(C)C)cc1 (stereo not drawn) | 22%
Clc1ccc(-c2nn3c(C4COc5ccccc5O4)nnc3s2)cc1 (stereo not drawn) | 79µM*
O=C(COC(=O)[C@H](Cc1ccccc1)NS(=O)(=O)c1ccccc1F)NC1CCCCC1 | 8%
CC1CCCCN1C(=O)Cn1cc(C#N)c2ccccc21 (stereo not drawn) | 11%
COc1cccc(NC(=O)CN(C)C(=O)c2cn(-c3ccccc3)nc2-c2cccs2)c1 | -7%

Next part.
SMILES | VDR inh
CCCCn1c(N)c(N(CCOC)C(=O)CC2CCCCC2)c(=O)[nH]c1=O | -7%
CC(=O)N1CCN(c2ccc(NC(=O)c3ccc4ccccc4c3)cc2)CC1 | 13%
CC1CCC/C=C/C(=O)c2c(O)cc(O)cc2CC(=O)O1 (stereo not drawn) | u
COc1ccc(C(=O)Cn2c(=O)c(CCC(=O)O)nn3c4ccccc4nc23)cc1OC | -1%
Cc1cc(S(=O)(=O)NCc2ccccn2)c(Cl)cc1Cl | -23%
C/C(=N\NC(=O)c1cccc(Br)c1)c1ccccn1 | 2%
CCN1CCCC1CNC(=O)CN(C)S(=O)(=O)c1ccc(Cl)cc1 (stereo not drawn) | -1%
COc1nc(OC)nc(N(C)CCO)n1 | -1%
CN(C)C(=O)CSc1nnc(-c2cccs2)n1-c1ccccc1 | 17%
Cc1ccc(NC(=O)C2CC(=O)N(c3ccc4c(c3)OCCO4)C2)cc1S(=O)(=O)N(C)C (stereo not drawn) | -11%
CCCCCCNC(=O)c1cc(S(=O)(=O)N2CCc3ccccc32)ccc1F | 0%
CC1CCN(c2ccc(NC(=O)c3ccc([N+](=O)[O-])o3)cc2)CC1 | 5%
O=C(CCOc1ccccc1)N(Cc1cccnc1)c1nc2c(F)cc(F)cc2s1 | 0%
CCOc1ccc(NC(=O)c2nn(C)c(C(=O)Nc3ccc(OCC)cc3)c2[N+](=O)[O-])cc1 | 3%
Cc1nonc1-c1csc(N)n1 | -13%
Cc1ccc(-n2ncc3c(NC4CCCC4)ncnc32)cc1 | 5%
Cc1ccc(N2C(=O)C3C4C=CC(CNC(=S)N5CCN(c6ccccn6)CC5)(O4)C3C2=O)cc1 (stereo not drawn) | 79µM*
Cc1cccc(NS(=O)(=O)c2ccc3c(c2)CCN3C(=O)CCC(=O)O)c1 | 5%
COC(CNS(=O)(=O)c1ccc(Cl)cc1)c1ccccc1 (stereo not drawn) | -6%
CC(NC(=O)c1cc(-c2ccc(Cl)cc2)on1)c1ccccc1 (stereo not drawn) | -3%
Oc1ccc(C=NNc2nc3ccccc3s2)c(O)c1 | 20%
CCOC(=O)C(C)Oc1cccc2c(=O)n(CC(=O)NCc3ccccc3)ccc12 (stereo not drawn) | -7%
CC(C)CC(N=Cc1c(O)c2ccccc2oc1=O)C(=O)O (stereo not drawn) | 16%
COc1ccc(-c2nnc(SCC(=O)N3CCOCC3)n2C)cc1OC | -5%
Cc1ccc(CSc2nc3cccnc3n2Cc2ccc(C(=O)NC3CC3)cc2)cc1 | -3%
Cc1ncc(C[n+]2ccc(C)c(C)c2)c(N)n1 | -3%
Cn1c(C(=O)N2CCN(c3ncccn3)CC2)cc2c(=O)n(C)c3ccccc3c21 | -5%
N#Cc1nc(-c2ccc(Cl)cc2)oc1NCc1ccco1 | -11%
O=C1c2ccccc2S(=O)(=O)c2cc(N3CCC4(CC3)OCCO4)ccc21 | 2%
COc1cc(S(=O)(=O)N2CCC(c3nc4ccccc4s3)CC2)ccc1S(=O)(=O)N1CC(C)CC(C)C1 (stereo not drawn) | 4%
O=C(NCC(O)c1ccccc1)c1ccc(Cl)c(S(=O)(=O)N2CCCC2)c1 (stereo not drawn) | -11%
COc1cccc(C(=O)Nc2c(C)nn(-c3ccccc3)c2C)c1 | 9%
Cc1ccc(C)c(CNC(=O)c2ccc3c(c2)nc2n3CCOC2)c1 | 17%
Oc1ccc2ccccc2c1N=Nc1nccs1 | -8%

Exported with each value named: three of the compounds above.
canonical_smiles: O=C(NCC(O)c1ccccc1)c1ccc(Cl)c(S(=O)(=O)N2CCCC2)c1 (stereo not drawn)
  VDR inh: -11%
canonical_smiles: Oc1ccc2ccccc2c1N=Nc1nccs1
  VDR inh: -8%
canonical_smiles: COc1cccc(C(=O)Nc2c(C)nn(-c3ccccc3)c2C)c1
  VDR inh: 9%

Screening results as filed in PubChem.
